fixLJ activator – activators of Burkholderia fixLJ two-component system; B. multivorans fixK-promoter GFP reporter, 18 h; stronger effect = higher value; z-score (concentration not given with the values); hit rate 0.3% among 29,000;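 active means replicate mean overnight rise in green fluorescent reporter signal, 3 or more SD over negative controls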;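 further: score is relative to vehicle wells of the plate; 300 nL library stock went into each well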
* marks the source's active call; other numbers are inactive results.

SMILES	fixLJ activator
COc1ccccc1CNC(=O)CCCCn1c(=O)c2ccccc2n(Cc2c(C)cc(C)cc2C)c1=O	-0.67
O=S(=O)(NC1COCC1Cc1ccncc1)c1ccc(-c2cc(C(F)(F)F)on2)o1 (configuration not stated)	0.47
Cc1ccc(-c2cn3cccnc3n2)cc1NC(=O)Nc1ccc(F)cc1	0.47
CC(C)(C)C1CCc2c(sc(NC(=O)c3ccccc3F)c2C(=O)NCc2ccco2)C1 (configuration not stated)	-1.4
CC(C)(C)C1CCc2c(sc(NC(=O)c3ccco3)c2C(=O)Nc2ccccc2Cl)C1 (configuration not stated)	-0.91
COC(=O)c1cc2oc3ccccc3c2n1CC(=O)Nc1ccc(C)cc1C	-1.8
CC1CCCCN1c1nc(-c2ccc(C(C)(C)C)cc2)nc2ccccc12 (configuration not stated)	0.95
Cc1ccc2c(c1)cc1c(=O)n(CC(=O)N3CCCCC3)nc(C)n12	-1.7
COc1ccc(C2c3c(oc4cc(C)cc(C)c4c3=O)C(=O)N2Cc2ccco2)cc1OC (configuration not stated)	-1.4
CC(=O)Nc1ccc(NC(=O)c2cnn(-c3ccccc3)c2C2CCN(C(=O)OC(C)(C)C)CC2)cc1	-0.51
CCOc1ccc(N(CC(=O)NCc2ccc(Cl)cc2)S(=O)(=O)c2c(C)noc2C)cc1	-0.79
CC(C)CN1CC(C(=O)N2CCN(c3ncn[nH]3)CC2)CCC1=O (configuration not stated)	-0.56
O=C(NCCCn1cc(Cl)cn1)N1CCC(O)(c2ccccc2)CC1	0.62
CC(C)Cn1cncc1CNC(=O)c1coc2c1C(=O)CCC2	1.1
C=CCc1cccc2cc(C(=O)NCCc3c(C)[nH]c4c(C)cccc34)c(=O)oc12	-2.2
O=C(O)CCn1ccc2cc(S(=O)(=O)N3CCCCCC3)ccc21	0.13
Cn1c(=O)nc2n(-c3ccc(Br)cc3)c3cccc(Cl)c3cc-2c1=O	-1.2
CCn1c(=NC(=O)c2ccc(S(=O)(=O)N3CCCCC3)cc2)sc2cccc(OC)c21	-0.16
c1ccc(N2CCN(Cc3nnc(-c4ccc5c(c4)OCO5)o3)CC2)cc1	-0.86
CCc1cccc(C)c1NC(=O)C1CCN(S(=O)(=O)c2cccc3nonc23)CC1	-1.1

Taken from above:
Result of `Cc1ccc(-c2cn3cccnc3n2)cc1NC(=O)Nc1ccc(F)cc1` under fixLJ activator: 0.47
Result of `CC(=O)Nc1ccc(NC(=O)c2cnn(-c3ccccc3)c2C2CCN(C(=O)OC(C)(C)C)CC2)cc1` under fixLJ activator: -0.51
Result of `O=C(O)CCn1ccc2cc(S(=O)(=O)N3CCCCCC3)ccc21` under fixLJ activator: 0.13

Continued:
SMILES	fixLJ activator
COc1ccc(-c2nn3c(-c4ccc(OC)cc4)nnc3c3ccccc23)cc1	0.3
COc1ccccc1Nc1cc(C(=O)NCCCN(C)C2CCCCC2)c2ccccc2n1	-0.07
CC(C)C1CN(C(=O)C2(C(N)=O)CC2)CCC(=O)N1Cc1ccc(F)cc1 (configuration not stated)	-1.7
CCOC(=O)CSc1nc(-c2ccc(C)cc2C)cc(-c2ccccc2)c1C#N	-0.65
CCN(CC)C(=O)c1sc(NC(=O)C2c3ccccc3Oc3ccccc32)c(C(=O)OC(C)C)c1C	-0.24
CC(C)=CCOC1CCOCC1NC(=O)c1ccncc1O (configuration not stated)	-0.39
CC1(C)CC(CC(=O)NCc2cnc3c(c2)CCC3)CC(C)(C)N1	0.66
Cc1cccc(-n2c(SCc3nc(-c4ccccc4C)no3)nnc2-c2ccccc2)c1	-0.53
CC(C)c1cc(C(=O)NCc2ccc(F)cc2)no1	-0.4
Cc1ccc(-c2ccc(CCC(=O)O)n2-c2cccc(C)c2C)cc1	-2.3
Cc1c(C)c2cc3c(c(C)c2oc1=O)OCN(CCc1ccccc1)C3	-3.7
COc1ccccc1CNC(=O)c1cn(C)c2ccc(S(=O)(=O)N(C)C3CCCCC3)cc2c1=O	-1.4
CC(C)OCC1CCN(c2nc(-c3ccncc3)nc3c2cnn3C)CC1	0.16
C[C@H]1[C@@H](OC(=O)CCC(=O)O)O[C@@H]2OC3(C)CC[C@H]4[C@H](C)CC[C@@H]1[C@@]24OO3	-0.95
O=C(NCc1cccc(Cl)c1)c1ccc(NC(=O)N2CCSc3ccccc32)cc1	-0.82
Cc1ccc2cc(C3(O)CCN(C(=O)CCc4cccnc4)CC3)ccc2n1	0.28
CCn1cc(S(=O)(=O)c2ccccc2)c(=O)c2cc(F)c(F)cc21	-1.3
CCNC(=O)CC1C(=O)N(c2ccc(F)cc2)C(=O)N1Cc1ccc(OC)c(OC)c1 (configuration not stated)	0.54
Cc1ccc(CSc2nc3ccncc3n2Cc2nc(-c3ccc(Cl)cc3)oc2C)cc1	0.44
CCC(=O)N1CCc2cc(S(=O)(=O)NCc3ccc(C)cc3)ccc21	-0.99
CCOC(=O)c1ccc(N2C(=O)c3[nH]nc(-c4ccccc4)c3C2c2cccs2)cc1 (configuration not stated)	0.66
COc1ccc(-c2nc3ccccc3s2)cc1NC(=O)COc1ccccc1C	0.77
C=C1N[C@@H](Cc2ccc3[nH]cc(CCN(C)C)c3c2)CO1	-0.7
O=C(C1CCCC1)N1CCC[C@]2(C1)CN(c1ncc(Cl)cn1)CCC2O (some centres not stated)	-0.93
CCc1ccc2occ(CC(=O)N(Cc3ccccc3)C3CCS(=O)(=O)C3)c2c1 (configuration not stated)	-1.4
CC(C)Oc1ccc(CNC(=O)C2CCN(C(=O)c3sccc3-n3cccc3)CC2)cc1	-1.9
CCc1nn(C(CC)C(=O)NCc2ccc(OC)c(OC)c2)c(=O)c2cc3oc(C)cc3n12 (configuration not stated)	-1.9
CCc1cc(N2CCC(CCn3ccnc3C)CC2)n2nc(C)c(C)c2n1	0.41
CCn1cc(-c2nc(C3CC(c4ccccc4)N4CCC[C@@H]34)no2)cn1 (some centres not stated)	-0.24
COc1ccccc1CNC(=O)CCCn1c(=O)c2ccccc2n(Cc2ccccc2F)c1=O	-0.6
CCN(CCn1cccn1)C(=O)Nc1ccccc1OC(F)(F)F	-2.7
COc1cc(C(=O)Nc2ccc(CC(=O)NC3CC3)cc2)ccn1	-0.03
CCOc1ccc(C2=NC(c3ccncc3)=Nc3ccc(C)cc3N2)cc1OCC	0.56
CC1(CNC(=O)C2OCC(=O)NC2c2ccccc2Cl)CCCCC1 (configuration not stated)	-0.02
O=C(NC1CCCCC1)c1ccc2c(c1)N(Cc1ccc(F)cc1)C(=O)c1ccccc1S2(=O)=O	0.51
CC(C)Oc1cccc2c1c(NC(=O)CCc1cccnc1)nn2C	0.39
CCn1nc(CC(C)C)cc1C(=O)N1CC(O)C(Cc2ccccn2)C1 (configuration not stated)	-0.31
Cc1c(Cl)cccc1N1CCn2c1nc1c2c(=O)n(CC(=O)O)c(=O)n1C	-0.52
CC(O)c1cc2n(n1)CCN(Cc1ccccc1OCCN1CCCCC1)C2 (configuration not stated)	1.2
COc1ccc(C2CC(=O)Oc3c2c(=O)oc2ccccc32)c(OC)c1OC (configuration not stated)	0.07

Part of the list above in order of number of heavy atoms, smallest number first.
SMILES	fixLJ activator
CCN(CCn1cccn1)C(=O)Nc1ccccc1OC(F)(F)F	-2.7
CC1(CNC(=O)C2OCC(=O)NC2c2ccccc2Cl)CCCCC1 (configuration not stated)	-0.02
CCn1nc(CC(C)C)cc1C(=O)N1CC(O)C(Cc2ccccn2)C1 (configuration not stated)	-0.31
CCc1cc(N2CCC(CCn3ccnc3C)CC2)n2nc(C)c(C)c2n1	0.41
COc1ccc(-c2nc3ccccc3s2)cc1NC(=O)COc1ccccc1C	0.77
O=C(NC1CCCCC1)c1ccc2c(c1)N(Cc1ccc(F)cc1)C(=O)c1ccccc1S2(=O)=O	0.51

Further results follow:
SMILES	fixLJ activator
CCOc1cccc(C(=O)N(Cc2ccc(F)cc2)Cc2ccco2)c1	-1.3
O=C(NCCCc1nc2ccccc2n1Cc1cccc(Cl)c1)c1ccco1	-0.86
COc1cccc(-c2nc(CS(=O)(=O)CC(=O)NCCc3ccc(OC)c(OC)c3)c(C)o2)c1	-0.64
CNc1ncc(C(=O)NC2COCC2Cc2ccncc2)cn1 (configuration not stated)	0.41
CCOC(=O)C1=C(CN2CCN(c3cccc(Cl)c3)CC2)NC(=O)NC1c1ccc(Cl)cc1 (configuration not stated)	-0.99
COc1ccccc1OCCn1c(NC(=O)c2ccccc2Cl)nc2ccccc21	-2.6
CCC(NC(=O)c1c(-n2cnnn2)sc(C)c1C)c1nc(C)c(C)s1 (configuration not stated)	-0.35
Cc1cc(C)cc(NC(=O)CCCN2C(=O)COc3ccc(C)cc32)c1	-1.4
CCC(=O)Nc1ccc(OCC(=O)NCc2ccccc2OC(C)CC)cc1 (configuration not stated)	0.2
CN(C)CC1(O)CCCN(C(=O)c2ccccc2-n2cncn2)C1 (configuration not stated)	-3.2
COc1cccc(F)c1C(=O)NCC(O)C12CC3CC(CC(C3)C1)C2 (configuration not stated)	-1.4
CCC(NS(=O)(=O)c1cc(-c2cc(C)[nH]n2)sc1C)c1cccnc1 (configuration not stated)	-0.49
O=C(OCc1ccccc1Cl)c1ccc(-c2nnn(Cc3ccccc3Cl)n2)cc1	-2.2
Cc1c(-c2nsc(NC(=O)c3ccccc3)n2)nnn1-c1ccc(C(F)(F)F)c(Cl)c1	-2.2
CCCOc1cccc(C2c3c(oc4ccc(F)cc4c3=O)C(=O)N2CCc2ccc(OC)cc2)c1 (configuration not stated)	0.64
Cc1ccn2c(Nc3ccc(F)cc3)c(-c3ccc(C)o3)nc2c1	-0.38
CCOc1ccc(NC(=O)CC2C(=O)N(c3ccccc3)C(=O)N2CCc2cccs2)cc1 (configuration not stated)	-1.9
CCOc1ccccc1NC(=O)Cn1c(=O)n(CCC(=O)NCc2ccc3c(c2)OCO3)c(=O)c2ccccc21	0.32
CC(=O)c1ccc(NC(=O)N(CCCCO)Cc2ccccc2)cc1	1.4
O=C(N1CC(O)C(Cc2ccc3ccccc3n2)C1)C1(CO)CC1 (configuration not stated)	0.12
CCOc1ccccc1NC(=O)C(CC)Sc1nc2ccncc2[nH]1 (configuration not stated)	0.39
CCCCOc1ccccc1C(=O)N1CCCC2(CCc3cn[nH]c32)C1 (configuration not stated)	-1
CN(C)c1cc2c(cc1NC(=O)NCCNc1cccnc1)n(C)c(=O)n2C	0.02
OCC(CNc1cc(-c2ccccc2)nc2ccnn12)Cc1ccsc1 (configuration not stated)	-1.3
Cc1cccc(-n2c(CNC(=O)c3cccc(F)c3)nnc2SCC(=O)Nc2ccccc2F)c1	-0.64
CO[C@@]12CCC(Oc3ccccn3)CC1N(C(=O)CCSC)CC2 (some centres not stated)	-0.8
Cc1nn(C)c(C)c1CCC(=O)NCC1(c2cccc(F)c2)CCOCC1	-0.73
CCN(CCCc1ccccc1)CCCc1ccccc1	0.15
COc1cc(OC)c(Nc2nc3ccccc3c3nncn23)cc1Cl	0.98
Cc1nonc1CNS(=O)(=O)c1ccc(-c2cc(C(F)(F)F)[nH]n2)o1	0.45
CCN(CC)C(=O)Cn1c(=O)n(CCCCCC(=O)Nc2ccccc2)c(=O)c2sccc21	-1.4
COc1ccc(CCNC(=O)c2nc(SCc3ccccc3F)ncc2Cl)cc1OC	0.9
O=C1Nc2c(c(=O)[nH]c(=O)n2-c2ccc(F)cc2)C1(NS(=O)(=O)c1ccc(Cl)cc1)C(F)(F)F (configuration not stated)	-3.8
Cc1ccc2nc(NS(=O)(=O)c3ccc(Cl)cc3)c(Nc3ccc(C(=O)O)cc3)nc2c1	-0.65
Cc1cccc(C(=O)Oc2c(Sc3ccccc3)c(C)nn2C(C)(C)C)c1	0.59
CCOC(=O)c1c(-c2ccc(C)cc2)csc1NC(=O)c1nc(SC(C)C)ncc1Cl	-0.45
CCCN(CCC)CCCNC(=O)c1cc2c(=O)oc3ccc(C)cc3c2s1	-0.84
Cc1cccc(NC(=O)CCS(=O)(=O)c2cccc3nsnc23)c1C	-1.7
CCOC(=O)c1cccc(NC(=O)C2(S(=O)(=O)c3ccc(C)cc3)CC2)c1	-1.2
CCOc1ccc(CCNC(=O)c2cc3cc4cc(OC)ccc4nc3s2)cc1OCC	0.27
COc1ccc(NC(=O)c2cc3nc(-c4ccc(C)c(C)c4)cc(C(F)(F)F)n3n2)cc1	0.08
CCSc1nc(CC(=O)N2CCC(C(=O)NC(C)COC)CC2)cs1 (configuration not stated)	-0.69
COc1cccc(C(=O)N2CCCNC(=O)C2)c1OCCCN	-0.7
COCCn1ccnc1C1CCN(c2nc(N(C)C)nc(C)c2C)CC1	-2.7
CCN(CCn1cccn1)S(=O)(=O)c1cc(C(N)=O)cs1	-2.1
O=C(CSc1ccc2ccccc2n1)Nc1nsc(-c2ccc(Cl)cc2)n1	-1.6
CCC(Sc1nnc2c3ccccc3n(CC)c2n1)C(=O)Nc1nnc(C(C)C)s1 (configuration not stated)	-1
COc1ccc(C(=O)Nc2ccc3oc(-c4ccc5ccccc5c4)nc3c2)cc1Br	-0.63
Cc1cccc(N2CCN(CCC(=O)N3CCC(c4ccncn4)CC3)CC2)c1	-2.2
CN(C(=O)c1cc2c(s1)-c1ccc(Cl)cc1SC2)c1cccc(C(F)(F)F)c1	-1.9
Cc1ccc(C)n1-c1nnc(N2CCCC(C(=O)NCc3ccc(Cl)cc3)C2)s1 (configuration not stated)	-1.8
Cc1ccc(-c2nnc(Nc3ccc(C(=O)N(C)C)cc3)c3ccccc23)cc1S(=O)(=O)N(C)C	-1.9
CCOC(=O)c1ccc(NC(=O)CCc2c(C)n(CC)c3cc(-c4ccccc4OC)nn3c2=O)cc1	-0.21
Cc1c(CC(=O)NCCc2ccccc2F)c(=O)oc2c(C)c3occ(C(C)(C)C)c3cc12	-0.22

Seven entries from above, as comma-separated lines.
structure,fixLJ activator
CCC(Sc1nnc2c3ccccc3n(CC)c2n1)C(=O)Nc1nnc(C(C)C)s1 (configuration not stated),-1
COc1cccc(C(=O)N2CCCNC(=O)C2)c1OCCCN,-0.7
COc1ccc(C(=O)Nc2ccc3oc(-c4ccc5ccccc5c4)nc3c2)cc1Br,-0.63
O=C(CSc1ccc2ccccc2n1)Nc1nsc(-c2ccc(Cl)cc2)n1,-1.6
CCSc1nc(CC(=O)N2CCC(C(=O)NC(C)COC)CC2)cs1 (configuration not stated),-0.69
COc1ccc(NC(=O)c2cc3nc(-c4ccc(C)c(C)c4)cc(C(F)(F)F)n3n2)cc1,0.08
COCCn1ccnc1C1CCN(c2nc(N(C)C)nc(C)c2C)CC1,-2.7

High-throughput results as filed in PubChem.

The list is partial, so the mix of outcomes need not match the whole.
